High-throughput results as filed in PubChem BioAssay.
Measles inh: inhibitors of measles virus growth in cells, primary screen, measles RdRp inhibitor project, cell-based, single point, HTS; infected Vero cells, GFP fluorescence, 64 h; stronger effect = lower value; z-score (test concentration not listed); 0.1% of 33,000 active; AID 745, 2007;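 active = z-score under -3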;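 note: score is relative to mean and SD of the compound wells of a plate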
* marks the source's active call; other numbers are inactive results. Not all compounds are listed (hit frequency here may not be typical).

Measles inh	molecule
-0.73	O=C(Nc1ccc(O)c(-c2nc3ccccc3s2)c1)c1ccccc1[N+](=O)[O-]
0.21	CC(=O)CSc1nc(-c2cccs2)cc(C(F)(F)F)c1C#N
0.74	Cc1ccc(CCN2C(=O)CN(C3CCCCC3)C(=O)C2c2ccc(F)cc2)cc1 (configuration not stated)
0.32	C=CCNC(=O)c1ccc(N2CCOCC2)c(NS(=O)(=O)c2ccc(OC)cc2)c1
0.15	Cc1ccc(S(=O)(=O)N(CC(O)CN2C(=O)NC(C)(C)C2=O)c2cccc([N+](=O)[O-])c2)cc1 (configuration not stated)
0.16	COc1cc(CCN2C(=O)c3cccc4cccc(c34)C2=O)c(S(=O)(=O)NC2CCS(=O)(=O)C2)cc1OC (configuration not stated)
0.75	CCOC(=O)c1c(NC(=O)c2cccc(F)c2)sc(C(=O)Nc2ccc(C)c(Cl)c2)c1C
1.9	Cc1ccc(-c2cn3c(n2)sc2cc(C)ccc23)cc1
-0.64	COc1ccccc1NC(=O)c1c(NC(=O)c2ccccc2C)sc2c1CCCC2
-0.32	O=S(=O)(c1ccc(Br)cc1)N1CCSC1c1ccc(Br)cc1 (configuration not stated)
0.96	O=C(Nc1ccc(Cl)cn1)c1ccc([N+](=O)[O-])cc1Cl
0.68	COc1cc(OC)c(OC)cc1CNCc1ccc(OC)c(OC)c1
0.27	CC(=O)c1ccc(NC(=NS(=O)(=O)c2ccc(C)cc2)c2ccccc2)cc1
2.5	CCCCN(CCCC)C1=C(C(=O)c2ccccc2)N(C)S(=O)(=O)c2ccccc21
-0.99	O=C(CCn1c(=S)[nH]c2cc3c(cc2c1=O)OCO3)NCCc1ccc(Cl)cc1
-0.58	CCOC(=O)C(NS(=O)(=O)c1ccc([N+](=O)[O-])cc1)C(C)C (configuration not stated)
-0.32	Cc1c(Cl)cccc1NC(=O)c1ccc(N2C(=O)c3ccccc3C2=O)cc1
-0.23	O=C1N(Cc2ccccc2)c2ccccc2C1(c1ccccc1)c1ccccc1
1.1	CCC(C)OC(=O)C1=C(C)NC2=C(C(=O)C(C(=O)OC)C(C)C2)C1c1coc2ccccc2c1=O (configuration not stated)
-0.73	c1ccc(NC2=NC3(CCCCC3)Cc3ccccc32)cc1
-2.9	CC(=O)Nc1ccc(Nc2ccc(N3C(=O)C4CCC(C)CC4C3=O)cc2[N+](=O)[O-])cc1 (configuration not stated)
-0.35	CCCn1c(=NC(=O)c2ccccc2Br)c(C(=O)OCC)cc2c(=O)n3ccccc3nc21
-1	Cc1ccn2c(Nc3ccc(C(C)C)cc3)c(-c3ccccn3)nc2c1
-0.1	COc1ccccc1C(NC(=O)C(C)C)c1ccc2cccnc2c1O (configuration not stated)
-0.73	Oc1c(C(Nc2ccccn2)c2ccc(OC(F)F)cc2)ccc2cccnc12 (configuration not stated)
0.03	Cc1ccc(S(=O)(=O)N2CCN(S(C)(=O)=O)C2C(C)C)cc1 (configuration not stated)
-0.39	CC1(CC(=O)c2ccc([N+](=O)[O-])cc2)C(=O)OC(c2ccccc2)C(C)(C)C1=O (configuration not stated)
-0.08	c1ccc(CCn2c(Cc3ccccc3)nc3ccccc32)cc1
0.6	COc1ccccc1NC(=O)c1ccc2c(=O)n(Cc3ccco3)c(=S)[nH]c2c1
1.4	CCC(=O)N1c2ccccc2NC2=C(C(=O)CCC2)C1c1ccc(N(C)C)cc1 (configuration not stated)

Next structures follow.
Measles inh	molecule
0.69	Cc1ccccc1CSCCC(=O)NC1CCCC(C)C1C (configuration not stated)
0.55	CCCC(=O)OCCNc1cc(SC(C)C)c2nonc2c1[N+](=O)[O-]
-0.41	Cc1c(Cl)cccc1N1C(=O)C2CCCCC2C1=O (configuration not stated)
-0.4	CCOC(=O)c1ccc(NC(=O)CSc2nc3ccccc3[nH]2)cc1
2.4	Cc1cccc(Cn2c(SCCN3CCCCC3)nc3c2c(=O)[nH]c(=O)n3C)c1
-1.2	CC(C)(C)OC(=O)C1C(=O)CC(C)(O)C(C(=O)OC(C)(C)C)C1c1ccc(F)cc1 (configuration not stated)
1.4	COCc1cc(C)nc(SCc2ccc(Cl)cc2)c1C#N
0.09	CCOc1ccc(N2C(=O)CC(NCCNC(=O)c3ccc(Cl)cc3)C2=O)cc1 (configuration not stated)
1.4	c1ccc(Cn2c(-c3ccccc3)csc2=Nc2ccccc2)cc1
-0.47	CCc1c(C)c(C#N)c2nc3ccccc3n2c1NCCN(C)C
-0.21	Cc1cc(C)c(S(=O)(=O)CCC#N)c(C)c1
-0.65	O=C1CN(C(=O)C2CCCCC2)C(c2ccccc2)c2cc(Cl)ccc2N1 (configuration not stated)
-1	CCCCCn1c(=O)[nH]c2cc(C(=O)NCCN3CCCCC3C)ccc2c1=O (configuration not stated)
-1.1	Cc1nnc(SCC(=O)Nc2ccc(Br)cn2)[nH]c1=O
-1.4	Cc1cc(NC(=O)CSc2nc3c(sc(=S)n3Cc3ccco3)c(=O)n2-c2ccccc2)no1
-1.1	COc1ccc(-n2c(=O)c3c4c(sc3n(CC(=O)NCc3ccc(C)cc3)c2=O)CCCC4)c(OC)c1
-0.61	CC(C)CN1C(=O)C2CC=CCC2C1=O (configuration not stated)
-2.2	CN(C(=O)Cc1cccs1)C1(C(=O)NC2CCCC2)CCCCC1
-0.28	COc1ccc(-n2c(=S)[nH]c3cc(C(=O)NC4CCCCC4)ccc3c2=O)cc1
0.08	O=C(NCCN1CCOCC1)c1ccc2c(c1)ncn2-c1cccc(Cl)c1
-0.25	CCC1CCCCN1CCNC(=O)CCS(=O)(=O)c1ccc(Br)cc1 (configuration not stated)
-1.6	Cc1ccc2c(c1)N(CCC(=O)NCCc1ccc(Cl)cc1)C(=O)CO2
0.07	Cc1ccc2c(C)nc(N=C(NC(=O)c3ccccc3)NC(=O)c3ccccc3)nc2c1
-0.78	CCOC(=O)c1cnc2ccc(C(=O)OC)cc2c1Nc1ccc(N(C)C)cc1
-0.05	COc1cc2c(cc1OC)C(=S)NC1(CCCC1)C2
0.57	CC(C)(C)c1ccc(OC(=O)CCN2C(=O)c3ccccc3C2=O)cc1
-0.5	CS(=O)(=O)Nc1cc(-c2nnc(Nc3ccc(O)cc3)c3ccccc23)ccc1N1CCOCC1
-0.4	CCCOc1ccc(-c2cn3ccccc3n2)cc1[N+](=O)[O-]
0.99	Cc1ccc(-n2nc(C(=O)NCCCN3CC(C)CC(C)C3)c3c4ccccc4n(C)c3c2=O)cc1 (configuration not stated)
0.39	O=C(O)CNC(=O)Cn1ccc2ccccc2c1=O

New compounds follow
Measles inh	molecule
-0.6	CC(=O)OC(Cn1nc(C)cc1C)c1ccccc1 (configuration not stated)
0.5	CC(=O)c1ccc(NC2=C(n3nnc4ccccc43)C(=O)c3ccccc3C2=O)cc1
-0.65	CCOc1ccc(NC(=O)Cc2c(C(=O)O)[nH]c3ccccc23)cc1
0.03	CCOC(=O)COc1ccc(C2C3=C(CC(C)(C)CC3=O)OC3=C2C(=O)CC(C)(C)C3)cc1OC
-0.17	Nc1c(C(=O)c2ccccc2)oc2ccc(Cl)cc12
0.77	Cc1onc(-c2ccccc2)c1C(=O)NCc1cccnc1
1.2	CCOc1ccc(CN2C(=O)CCC2(C)C(=O)NC2CCCC2)cc1 (configuration not stated)
-0.57	NC(=O)C1CCN(C2CCN(C(=O)c3cccn4c(=O)c5ccc(Cl)cc5nc34)CC2)CC1
0.22	Cn1ccnc1SCC(=O)Nc1ccc(OC(F)(F)F)cc1
0.99	CC1CC(C)CN(S(=O)(=O)N2CCCC(C(=O)O)C2)C1 (configuration not stated)
-0.7	Cc1ccc(/C(O)=C2\C(=O)C(=O)N(CC(C)O)C2c2cccnc2)cc1 (configuration not stated)
0.02	O=C1c2ccccc2-c2nc3c(Br)cc(C(F)(F)F)cc3nc21
-1.1	Cc1ccc(C(NC(=O)CCc2ccccc2)c2ccc3cccnc3c2O)cc1 (configuration not stated)
0.14	CCCOC(=O)c1c(NC(=O)Cn2nc([N+](=O)[O-])cc2C)sc2c1CCCC2
-1.7	Cc1ccc(NC(=O)c2cc(S(=O)(=O)N3CCc4ccccc4C3)ccc2F)cc1C
-0.7	CC(C)Oc1ccc(C(=O)Nc2ccc3oc(-c4ccncc4)nc3c2)cc1
-0.67	CCOC(=O)c1cnc2ccc(OCC)cc2c1N1CCCC1
0.56	CC1CCCCN1C(=O)CSc1nc(-c2cccs2)cc(C(F)(F)F)n1 (configuration not stated)
-0.6	N#CC1(Nc2ccc(Br)cc2)C(=O)Nc2ccccc21 (configuration not stated)
-0.56	COc1cc(C2C(C(=O)OCCc3ccccc3)=C(C)NC3=C2C(=O)CC(c2ccccc2)C3)cc(Br)c1O (configuration not stated)
0.54	CCCN1CNC(=S)N(c2ccc(C)cc2)C1
0.45	CCOC(=O)c1c(C)oc2c1c1c(c3ccccc32)OCN(CCCN2CCOCC2)C1
0.66	COCCOC(=O)C1=C(C)NC2=C(C(=O)CCC2)C1c1ccc(Br)cc1 (configuration not stated)
-0.85	COc1cc(NC(=O)c2nn3c(C(F)(F)F)cc(-c4ccccc4)nc3c2Br)cc([N+](=O)[O-])c1
0.18	Cc1ccc([N+](=O)[O-])cc1NC1CC(O)C(CO)O1 (configuration not stated)
1.7	COC(=O)c1sccc1NC(=O)c1cc(-c2ccc(OC)c(OC)c2)nc2ccccc12
0.5	CC1CN(Cc2c(O)ccc3c(=O)c(Oc4ccc5ccccc5c4)c(C(F)(F)F)oc23)CC(C)O1 (configuration not stated)
-0.33	CC1(C)OC(=O)N(c2cccnc2)C1(C)O (configuration not stated)
0.72	Cc1cc(NC(=O)CC(C)(C)C)nc2c1c(=O)oc1ccccc12
0.71	CCN1CCCC1CNC(=O)C1CCC(CNS(=O)(=O)c2ccc(Cl)cc2)CC1 (configuration not stated)

2 entries from above, with each value named.
SMILES: COc1cc2c(cc1OC)C(=S)NC1(CCCC1)C2
  Measles inh: -0.05
SMILES: CCOC(=O)c1c(NC(=O)c2cccc(F)c2)sc(C(=O)Nc2ccc(C)c(Cl)c2)c1C
  Measles inh: 0.75

(list continues)
Measles inh	molecule
0.23	O=C1CCCc2nn(-c3ccccc3)c(-c3cccs3)c21
-0.87	COC(=O)c1ccc(C=Nc2sc3c(c2C#N)CCCC3)cc1
-0.37	O=C1C2C3C=CC(C3)C2C(=O)N1c1ncccc1O (configuration not stated)
1.6	COC(=O)c1c(NC(=O)COc2cc(C)c(Cl)c(C)c2)sc(C)c1C
0.92	COc1ccc(CNC(=O)CCS(=O)(=O)c2ccc(Br)cc2)cc1
-0.08	COC(=O)c1c(C)oc2ccc(OCC(=O)OC(C)(C)C)cc12
-0.2	Cc1ccc(CNC(=O)C2CCN(S(=O)(=O)c3cccc4nonc34)CC2)cc1
-0.38	CCOc1nc(-c2ccccc2)c2cc(Br)ccc2n1
-0.12	CCCCNc1ncnc2sc3c(c12)CCCCC3
-0.64	CCN(Cc1ccccc1)C1CCN(Cc2cccc(OC)c2)CC1
1.4	Cc1nn(Cc2n[nH]c(=S)n2Cc2ccccc2)c(C)c1Cl
2.2	CCOC(=O)c1sc(Nc2nc(C)cc(OC)n2)nc1C
-0.49	Cc1cccc(NC(=O)c2cc(S(=O)(=O)NCc3ccco3)ccc2F)c1C
0.73	COc1ccc(Cl)cc1NC(=O)c1cc2n(n1)C(C(F)(F)F)CC(c1ccc(OC)c(OC)c1)N2 (configuration not stated)
0.57	CCCc1cc(=O)[nH]c(SCC(=O)Nc2ccccc2C(F)(F)F)n1
1.9	CCOC(=O)c1ccc(NC(=O)c2cn(-c3ccccc3)nc2-c2ccc(C)cc2)cc1
-0.79	COc1ccc(CNc2oc(COc3ccc(Cl)cc3)nc2C#N)cc1
-0.83	Clc1ccc(OCc2nc(-c3ccccc3)no2)cc1
0.34	O=C(COc1ccc(-c2ccccc2)cc1)Nc1nccs1
0.78	CCOC(=O)c1c(NC(=O)c2ccc([N+](=O)[O-])cc2)sc(C)c1C
-0.56	CC(=O)OCCN1C(=O)c2ccccc2C1=O
1.2	CCCN(CCC)Cc1c(C)[nH]c2ccc(CC)cc2c1=O
-1.1	COc1ccc(C(=O)Nc2ccc3oc(-c4ccncc4)nc3c2)cc1Br
-0.05	CCOc1cc2[nH]c(=S)n(Cc3ccc(C(=O)NC(C)C)cc3)c(=O)c2cc1OCC
-0.98	CC(=O)c1cccc(NC(=O)c2ccccc2Br)c1
-0.67	COc1ccc(NC(=O)c2ccc(S(=O)(=O)N3CCc4ccccc43)cc2)c2ccccc12

Quoted at random: 7 records from the list.
Measles inh	molecule
2.2	CCOC(=O)c1sc(Nc2nc(C)cc(OC)n2)nc1C
-1.1	COc1ccc(C(=O)Nc2ccc3oc(-c4ccncc4)nc3c2)cc1Br
-0.56	CC(=O)OCCN1C(=O)c2ccccc2C1=O
-0.2	Cc1ccc(CNC(=O)C2CCN(S(=O)(=O)c3cccc4nonc34)CC2)cc1
-0.98	CC(=O)c1cccc(NC(=O)c2ccccc2Br)c1
-0.05	CCOc1cc2[nH]c(=S)n(Cc3ccc(C(=O)NC(C)C)cc3)c(=O)c2cc1OCC
-0.49	Cc1cccc(NC(=O)c2cc(S(=O)(=O)NCc3ccco3)ccc2F)c1C

In another format: entries from further up
CCCCNc1ncnc2sc3c(c12)CCCCC3
  Measles inh: -0.12
O=C1CCCc2nn(-c3ccccc3)c(-c3cccs3)c21
  Measles inh: 0.23
CC(=O)OCCN1C(=O)c2ccccc2C1=O
  Measles inh: -0.56
Cc1nn(Cc2n[nH]c(=S)n2Cc2ccccc2)c(C)c1Cl
  Measles inh: 1.4
